# VDR inh: Inhibitors of the vitamin D receptor (VDR): qHTS. Vitamin D3 receptor (Homo sapiens), P11473. VDR-SRC2-3 peptide fluorescence polarization, 2 h. Potency, µM, for the others: max response, negative = inhibition, most hits filed as inhibitors. 400,000 tested, 0.93% active. AID 504847, 2011; active means well fitted inhibition curve with a large enough effect; inconclusive means small, poorly fitted or top-dose-only effect, or another doubt; inactive means no such curve, though single readings can be large or run the other way; further: series mostly up to about 120 µM
# Target sequence (P11473 whole entry, looked up): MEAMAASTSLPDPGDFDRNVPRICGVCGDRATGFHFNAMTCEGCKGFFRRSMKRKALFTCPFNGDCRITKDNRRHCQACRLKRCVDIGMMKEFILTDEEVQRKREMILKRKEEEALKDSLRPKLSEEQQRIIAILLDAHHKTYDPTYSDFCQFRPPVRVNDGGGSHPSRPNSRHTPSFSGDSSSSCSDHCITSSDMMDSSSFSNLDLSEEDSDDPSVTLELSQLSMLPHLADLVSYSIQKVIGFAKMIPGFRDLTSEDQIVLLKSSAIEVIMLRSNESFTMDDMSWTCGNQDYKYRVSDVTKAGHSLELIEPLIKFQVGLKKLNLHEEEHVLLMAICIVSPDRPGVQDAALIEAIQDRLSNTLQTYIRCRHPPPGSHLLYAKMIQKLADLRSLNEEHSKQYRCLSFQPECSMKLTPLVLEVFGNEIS
#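 Measured by FP: displacement of SRC2-3 coactivator peptide from VDR by library compounds, following a two-hour ambient incubation.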
# An asterisk follows results filed as active; u = inconclusive; ! = not confirmed by another sample. On the % scale 0 is the no-effect control and ±100 the full control effect; potency means the concentration at half of the fitted maximal effect. This is a subset. The share of hits here may be higher or lower than overall.
Cc1c(NC(=O)c2ccc(C(=O)Nc3c(C)n(C)n(-c4ccccc4)c3=O)cc2)c(=O)n(-c2ccccc2)n1C
  VDR inh: -26%
COCCNc1ccnc(-c2ccccc2C(F)(F)F)n1
  VDR inh: 3%
Cc1ccc(C(=O)Nc2ccc(C(=O)N/N=C/c3cccnc3)cc2)cc1
  VDR inh: 6%
COc1ccc(CCN(C)c2ccc(C(N)=O)cc2[N+](=O)[O-])cc1OC
  VDR inh: -1%
CCCNC(=O)CS(=O)Cc1nc(-c2cccc(OC)c2)oc1C (configuration not stated)
  VDR inh: -2%
Cc1ccccc1-n1c(-c2ccoc2C)n[nH]c1=S
  VDR inh: -10%
Cn1cc([N+](=O)[O-])c(C(=O)Nc2cc(Oc3ccccc3)cc([N+](=O)[O-])c2)n1
  VDR inh: -10%
COc1cc(-n2c(C)nc3cc(C(=O)N4CCOCC4)ccc32)cc(OC)c1OC
  VDR inh: -14%
C=CCSc1nc2c(c(=O)[nH]c(=O)n2C)n1CC
  VDR inh: -16%
Cc1c(NC(=O)c2ccc3c(c2)OCO3)cccc1-c1nc2ccccc2o1
  VDR inh: 1%
Cc1cccc(NC(=O)c2nnn(-c3cccc(C(F)(F)F)c3)c2N)c1
  VDR inh: -12%
CNS(=O)(=O)c1cccc2nsnc12
  VDR inh: -3%
Fc1ccc(-c2nn(-c3ccccc3)cc2CNCc2ccccc2)cc1
  VDR inh: 5%
O=C(N/N=C/c1ccc(Cl)cc1Cl)c1cccc(F)c1
  VDR inh: -6%
CCOc1ccc(CN2C(=O)c3ccccc3Sc3ccc(C(=O)O)cc32)cc1
  VDR inh: 13%

CCOc1ccc(NC(=O)C2CCCN2C(=O)NC2CCCCC2)cc1 (configuration not stated)
  VDR inh: -3%
COc1ccc(CN2CC(=O)N(c3ccc(Cl)cc3)C2=S)cc1OC
  VDR inh: -5%
O=C(NNC(=O)c1ccc([N+](=O)[O-])cc1)c1ccc(F)cc1
  VDR inh: 4%
Cc1cc(SCC(=O)N/N=C/c2ccccc2C(=O)O)c(C)cc1Br
  VDR inh: -10%
CCN1CCN(C(CNS(=O)(=O)c2ccc(Br)cc2)c2cccnc2)CC1 (configuration not stated)
  VDR inh: -3%
CSCCC(N)C(=O)NC(CC(C)C)C(=O)NC(Cc1ccccc1)C(=O)O (configuration not stated)
  VDR inh: 7%
Cc1ccc(N(C)S(=O)(=O)c2cccc(C(=O)N(C)Cc3cnn(-c4ccccc4)c3)c2)cc1
  VDR inh: 8%
O=C1C=CC(=O)N1c1ccc2c(c1)C(NC(=O)C(F)(F)F)c1ccccc1-2 (configuration not stated)
  VDR inh: 45µM*
CC[C@@]12C=C(/C=C/c3ccccc3)[C@](CC)(C1)[C@H](c1ccccc1)CC2=O
  VDR inh: -16%
CCC(C)(C)NC(=O)C(c1ccco1)N(C(=O)Cn1nnc2ccccc21)c1ccc2c(c1)OCO2 (configuration not stated)
  VDR inh: 19%
Cc1cccc(NC(=O)CSc2nnc(CNC(=O)c3c(F)cccc3Cl)o2)c1C
  VDR inh: 6%
COc1ccccc1-n1cnnc1SCC(=O)Nc1cccc(S(N)(=O)=O)c1
  VDR inh: 9%
COc1ccc(NC(=O)NCCN2CCc3ccccc3C2)cc1
  VDR inh: -7%
Cc1ccc(OCc2cc(C(=O)N(C)CCc3ccccn3)no2)cc1C
  VDR inh: -5%
COc1ccc(OC)c(NC(=O)C2CC(C)=C(C)CC2C(=O)O)c1 (configuration not stated)
  VDR inh: -6%

COc1ccc(NS(=O)(=O)c2ccc(C)c(C(=O)NNC(=O)c3ccccc3O)c2)cc1
  VDR inh: 5%
CCc1ccc(NC(=O)NCCc2c(C)nn(C)c2C)cc1
  VDR inh: 8%
Nc1nnc(SCc2ccccc2Cl)s1
  VDR inh: -12%
CCCCOC(=O)C(C)c1c(C)[nH]c(=S)[nH]c1=O (configuration not stated)
  VDR inh: -2%
COc1ccc(CCCc2nnc(SCc3nc4ccccc4c(=O)[nH]3)n2C)cc1
  VDR inh: u
CCn1cc(C(=O)NCc2cccc(F)c2)c(=O)c2cc(F)c(N3CCN(C(=O)c4ccco4)CC3)cc21
  VDR inh: -2%
COc1ccccc1NC(=S)N1CCN(c2ncccn2)CC1
  VDR inh: 3%
NC(=O)C1(N2CCCCC2)CCN(C(=O)c2ccc(C#CC3(O)CCCCC3)cc2)CC1
  VDR inh: 20%
Cc1ccc(CSc2nnnn2C)cc1
  VDR inh: -11%
CCN(CC(=O)Nc1c(F)cccc1F)C(=O)CN1c2cccc3cccc(c23)S1(=O)=O
  VDR inh: -10%
O=C(O)C(CCC(C(=O)O)c1ccccc1)c1ccccc1 (configuration not stated)
  VDR inh: 9%
Cn1c(CO)cnc1S(=O)(=O)Cc1c(Cl)cccc1Cl
  VDR inh: 6%
CCC(CC)C(=O)Nc1cc(=O)n(C)c(=O)n1C
  VDR inh: 9%
COc1ccc(Cl)cc1NC(=O)C/C(C)=N/NC(=O)COc1ccc(C)cc1
  VDR inh: -12%
COc1ccc(Cl)cc1NC(=O)CN(C)C(=O)c1cc2c(s1)CCCC2
  VDR inh: 3%

O=C(O)CSc1nnc(Nc2ccccc2)n1-c1ccccc1
  VDR inh: -3%
CCN1CCN(CC(O)COC(c2ccccc2)c2ccccc2)CC1 (configuration not stated)
  VDR inh: -18%
O=C(COC(=O)c1ccccc1SCC(=O)N1CCCC1)NC1CCCCC1
  VDR inh: -29%
Cc1nc(NS(=O)(=O)c2cccs2)c2c3c(sc2n1)CCC3
  VDR inh: 10%
O=C(c1ccccc1)N1CCc2[nH]nc(-c3ccccc3)c2C1
  VDR inh: -2%
CCCc1nn2c(=O)cc(COC(=O)c3ccc4c(c3)OCO4)nc2s1
  VDR inh: 5%
CC(=O)NC(c1ccc(Cl)cc1Cl)c1ccc2cccnc2c1O (configuration not stated)
  VDR inh: u
CC(C)(C)n1nnnc1CN(Cc1ccc(F)cc1)Cc1ccco1
  VDR inh: -10%
Cc1n[nH]c(=S)n1/N=C/c1ccccc1
  VDR inh: 4%
COc1cc2c(cc1OC)CN(C(=S)Nc1ccccc1Cl)CC2
  VDR inh: -13%
Cc1cc(C(=O)NP(=O)(N2CCOCC2)N2CCOCC2)c(C)n1-c1ccc(Br)cc1
  VDR inh: -1%
COc1ccccc1Nc1ncnc2c1cnn2-c1cccc(C)c1
  VDR inh: -7%
CC(C)OCCCNC(=O)Nc1cccc2ccccc12
  VDR inh: -1%
O=C(N/C(=C/c1cccc([N+](=O)[O-])c1)C(=O)N1CCCCCC1)c1cccs1
  VDR inh: 10%
O=C(CNC(=O)c1ccc(Cl)cc1)OCc1cc(=O)n2nc(C3CC3)sc2n1
  VDR inh: 5%

Cc1cccc(/N=C/c2ccccn2)n1
  VDR inh: 14%
CCCCOc1ccc(C(=O)Oc2cc(C)[nH]c(=O)c2[N+](=O)[O-])cc1
  VDR inh: -9%
CC(C)c1nnc(SCC(=O)N2CCc3ccccc32)n1N
  VDR inh: 79µM*
N#CCC(=O)N/N=C/c1ccccc1Cl
  VDR inh: -18%
COc1ccc(N2CCN(C(=O)CCc3ccc(S(=O)(=O)NCC(C)C)cc3)CC2)cc1
  VDR inh: 12%
Cc1ccc(CNC(=O)c2c3c(nc4ccccc24)C(=O)N(C2CCCCC2)C3)cc1
  VDR inh: -6%
COc1ccc(-c2oc3ccc(N4CCOCC4)cc3c2C#CC2(O)CCCCC2)cc1
  VDR inh: u
CC(=O)Nc1nc2ccccc2[nH]1
  VDR inh: -15%
Cc1ccc(NC(=O)CCSc2nnc3ccccn23)cc1
  VDR inh: -4%
COC(=O)C1=C(CN2CCc3ccccc32)NC(=O)NC1c1cc(C)ccc1C (configuration not stated)
  VDR inh: 19%
CC(NC(=O)c1cccs1)C(c1cccs1)N1CCN(Cc2ccccc2)CC1 (configuration not stated)
  VDR inh: -5%
COc1cc(CNCCCCO)ccc1OCc1ccccc1F
  VDR inh: -14%
c1coc(-c2cc(C3CCNCC3)[nH]n2)c1
  VDR inh: -12%
CC1CCC2(CC1)NC(=O)N(NC(=O)c1ccc(OC(C)C)cc1)C2=O (configuration not stated)
  VDR inh: 1%
CC(C)(C)C1=CC(O)(c2ccccc2)C=C(C(C)(C)C)C1=O
  VDR inh: 17%

# Some values from the list.
# Entry of COC(=O)C1=C(CN2CCc3ccccc32)NC(=O)NC1c1cc(C)ccc1C (configuration not stated) in VDR inh: 19%
# Entry of COc1cc(CNCCCCO)ccc1OCc1ccccc1F in VDR inh: -14%

# New compounds follow
Cc1cccc(OCC(=O)NCCNC(=O)c2ccncc2)c1
  VDR inh: -4%
Cn1c(=O)c(-c2ccc(Cl)cc2)nc2cnc(Oc3ccccc3)nc21
  VDR inh: -4%
O=C(NC1CCCCC1)C(c1ccco1)N(C(=O)c1csnn1)c1cccc(F)c1 (configuration not stated)
  VDR inh: -15%
COC(=O)C1=C(C)N(C)C(=O)NC1c1cc(Cl)cc(Cl)c1OC (configuration not stated)
  VDR inh: 0%
C[C@H](NC(=O)c1cccc([N+](=O)[O-])c1)C(=O)OCC(=O)c1ccccc1Br
  VDR inh: 14%
COc1ccc(C(=O)c2sc(Nc3cc(Cl)ccc3C)nc2N)cc1OC
  VDR inh: 12%
CC1(c2nnc(Cc3ccccc3)o2)CC(c2cccnc2)=NO1 (configuration not stated)
  VDR inh: -15%
CCN(CC)CCSC(=O)C(c1ccccc1)c1ccccc1
  VDR inh: 25µM*
O=[N+]([O-])c1cccc(-c2nnc(C34CC5CC(CC(C5)C3)C4)o2)c1
  VDR inh: -9%
CO/N=C/c1ccc(Sc2ccccc2N)c([N+](=O)[O-])c1
  VDR inh: -1%
CCCCOC(=O)N1CCOCCOCCN(C(=O)OCCCC)CCOCCOCC1
  VDR inh: 4%
C#CCOCCOCCOCCNc1nc(N2CCN(C(=O)[C@H]([C@@H](C)CC)n3cc(CCCCN)nn3)CC2)nc(N2CCN(C(=O)[C@H](C)n3cc(CCCN=C(N)N)nn3)CC2)n1
  VDR inh: 8%
COc1ccc(CN2CCN(Cc3c[nH]c4ccccc34)CC2CCO)cc1C (configuration not stated)
  VDR inh: -5%
Cc1ccc(CN(Cc2ccco2)C(=O)c2ccccc2Cl)o1
  VDR inh: 5%
Cc1ccc(S(=O)(=O)Nc2ccc(N3CCOCC3)cc2)cc1
  VDR inh: 3%

O=C1CN(C(=O)c2ccc(F)cc2)c2ccccc2N1
  VDR inh: -1%
c1ccc(-c2cnnc(SCc3cn4cccnc4n3)n2)cc1
  VDR inh: 4%
COc1ccccc1CNC(=O)C1CCCN(c2nnc(-n3c(C)ccc3C)s2)C1 (configuration not stated)
  VDR inh: 1%
CCc1ccc(Nc2ncc3c(n2)CC(C)CC3=O)cc1 (configuration not stated)
  VDR inh: 15%
Cc1cccc(NC(=O)COc2cccc3c2CCN(C)C3=O)c1C
  VDR inh: 7%
Oc1ccc(C2CNCc3sccc32)cc1O (configuration not stated)
  VDR inh: 13µM*!
N#CCCn1c(=O)c(CCc2ccccc2)nc2cnc(Oc3ccccc3)nc21
  VDR inh: -8%
CC1=NN(C(=O)c2csc(C)c2C)C(O)(C(F)(F)F)C1 (configuration not stated)
  VDR inh: -3%
Cc1c(C(=O)NCc2ccccc2Cl)sc2nc[nH]c(=O)c12
  VDR inh: 16%
COc1ccc(NC(=O)N2CC3(CCN(C(=O)c4cc(C(F)(F)F)cc(C(F)(F)F)c4)CC3)C2)cc1
  VDR inh: -3%
CC(=O)Nc1ccc2c(c1)Cc1c-2cc(Br)c(N)c1Br
  VDR inh: 14%
NC(=O)CSc1nc(-c2ccccc2)nc2ccccc12
  VDR inh: -2%
CCOC(=O)C1CCN(S(=O)(=O)c2ccc3c(c2)CCN3C(C)=O)CC1
  VDR inh: -10%
Cc1ccc(NC(=O)c2cc3c(s2)CCC3)cc1S(=O)(=O)N1CCOCC1
  VDR inh: 9%

# Entries from the list above with an aryl methoxy group, in the order listed:
COc1ccc(CCN(C)c2ccc(C(N)=O)cc2[N+](=O)[O-])cc1OC
  VDR inh: -1%
CCCNC(=O)CS(=O)Cc1nc(-c2cccc(OC)c2)oc1C (configuration not stated)
  VDR inh: -2%
COc1cc(-n2c(C)nc3cc(C(=O)N4CCOCC4)ccc32)cc(OC)c1OC
  VDR inh: -14%
COc1ccc(CN2CC(=O)N(c3ccc(Cl)cc3)C2=S)cc1OC
  VDR inh: -5%
COc1ccccc1-n1cnnc1SCC(=O)Nc1cccc(S(N)(=O)=O)c1
  VDR inh: 9%
COc1ccc(NC(=O)NCCN2CCc3ccccc3C2)cc1
  VDR inh: -7%
COc1ccc(OC)c(NC(=O)C2CC(C)=C(C)CC2C(=O)O)c1 (configuration not stated)
  VDR inh: -6%
COc1ccc(NS(=O)(=O)c2ccc(C)c(C(=O)NNC(=O)c3ccccc3O)c2)cc1
  VDR inh: 5%
COc1ccc(CCCc2nnc(SCc3nc4ccccc4c(=O)[nH]3)n2C)cc1
  VDR inh: u
COc1ccccc1NC(=S)N1CCN(c2ncccn2)CC1
  VDR inh: 3%
COc1ccc(Cl)cc1NC(=O)C/C(C)=N/NC(=O)COc1ccc(C)cc1
  VDR inh: -12%
COc1ccc(Cl)cc1NC(=O)CN(C)C(=O)c1cc2c(s1)CCCC2
  VDR inh: 3%
COc1cc2c(cc1OC)CN(C(=S)Nc1ccccc1Cl)CC2
  VDR inh: -13%
COc1ccccc1Nc1ncnc2c1cnn2-c1cccc(C)c1
  VDR inh: -7%
COc1ccc(N2CCN(C(=O)CCc3ccc(S(=O)(=O)NCC(C)C)cc3)CC2)cc1
  VDR inh: 12%
COc1ccc(-c2oc3ccc(N4CCOCC4)cc3c2C#CC2(O)CCCCC2)cc1
  VDR inh: u
COc1cc(CNCCCCO)ccc1OCc1ccccc1F
  VDR inh: -14%
COC(=O)C1=C(C)N(C)C(=O)NC1c1cc(Cl)cc(Cl)c1OC (configuration not stated)
  VDR inh: 0%
COc1ccc(C(=O)c2sc(Nc3cc(Cl)ccc3C)nc2N)cc1OC
  VDR inh: 12%
COc1ccc(CN2CCN(Cc3c[nH]c4ccccc34)CC2CCO)cc1C (configuration not stated)
  VDR inh: -5%
COc1ccccc1CNC(=O)C1CCCN(c2nnc(-n3c(C)ccc3C)s2)C1 (configuration not stated)
  VDR inh: 1%
COc1ccc(NC(=O)N2CC3(CCN(C(=O)c4cc(C(F)(F)F)cc(C(F)(F)F)c4)CC3)C2)cc1
  VDR inh: -3%
